Screens (PubChem BioAssay)
E coli growth: inhibitors of Escherichia coli growth. hit rate 0.21% among 330,000. OD600, 23 h; active compounds read low. OD600 absorbance (no concentration beside the values);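 active = OD600 absorbance below the run mean of sample wells minus 3.6 SD, in any replicate, cut at about 0.56 in these data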;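 also: stock transfer was 300 nL into about 60 µL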
FGF22 binding: binders of recombinant human FGF22 by thermal shift. Q9HCT0. SYPRO orange fluorescence; percent of sucrose octasulfate shift, DMSO zero. calls only at 9.99 µM. hit rate 1.5% among 340,000. AID 651658;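 active = melting point raised past a set limit in the mean and every replicate; inconclusive = no clear call; three in four hits are not shown here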
Target sequence (Q9HCT0 whole entry, looked up): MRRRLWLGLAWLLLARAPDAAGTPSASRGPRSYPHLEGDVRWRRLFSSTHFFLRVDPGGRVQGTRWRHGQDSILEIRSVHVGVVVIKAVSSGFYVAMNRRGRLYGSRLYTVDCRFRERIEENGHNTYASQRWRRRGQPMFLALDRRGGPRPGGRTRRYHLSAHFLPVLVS
ALR H2O2 inh: inhibitors of human sulfhydryl oxidase ALR; AID 485317; inhibition, % (concentration not given with the values); hit rate 3.8% among 290,000; purified ALR, DTT oxidation, H2O2 HRP-luminol luminescence;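 active = mean and each replicate at 75% or more; inconclusive = only one of the two met; inactive = neither met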;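 also: stock transfer was 7.5 nL into about 7.5 µL; 0% = neutral wells and 100% = wells with inactivated enzyme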
Target sequence (P55789 whole entry, looked up): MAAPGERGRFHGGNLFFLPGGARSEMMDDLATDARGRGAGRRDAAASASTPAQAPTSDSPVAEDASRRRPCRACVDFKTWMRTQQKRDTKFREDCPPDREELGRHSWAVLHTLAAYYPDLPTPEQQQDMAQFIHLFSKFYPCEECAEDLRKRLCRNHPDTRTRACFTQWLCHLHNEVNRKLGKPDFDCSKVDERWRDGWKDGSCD
AF4-AF9 inh: MLL-AF4/AF9 protein interaction inhibition | P42568 | inhibition, % at 10 µM | hit rate 0.47% among 350,000 | AlphaScreen, biotin-AF4 peptide binding to FLAG-AF9;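 active = every replicate reaching a set inhibition limit, whatever the replicate mean, cut at about 25% in these data; inconclusive = mean inhibition reaches that limit but some replicates miss it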;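 also: 0% = plate neutral control median and 100% = total signal loss; the record names both 10 and 1 µM as test concentration; the first replicate is given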
Target sequence (P42568 whole entry, looked up): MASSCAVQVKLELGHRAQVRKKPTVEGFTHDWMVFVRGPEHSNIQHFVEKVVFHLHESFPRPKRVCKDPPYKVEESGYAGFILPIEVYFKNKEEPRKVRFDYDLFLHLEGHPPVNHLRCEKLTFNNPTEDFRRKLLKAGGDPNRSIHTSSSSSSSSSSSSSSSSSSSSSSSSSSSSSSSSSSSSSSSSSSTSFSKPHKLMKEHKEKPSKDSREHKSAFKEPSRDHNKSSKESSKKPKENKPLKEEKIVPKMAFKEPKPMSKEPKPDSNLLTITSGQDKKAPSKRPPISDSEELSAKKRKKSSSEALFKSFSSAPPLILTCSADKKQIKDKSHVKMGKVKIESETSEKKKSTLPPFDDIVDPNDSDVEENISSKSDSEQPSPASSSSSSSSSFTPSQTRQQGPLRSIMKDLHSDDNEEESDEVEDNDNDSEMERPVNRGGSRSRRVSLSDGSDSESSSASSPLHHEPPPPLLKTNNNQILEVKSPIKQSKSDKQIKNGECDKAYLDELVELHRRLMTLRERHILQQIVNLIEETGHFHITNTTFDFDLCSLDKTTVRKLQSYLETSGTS
HNF4A DNA FP: change in binding of human HNF4 alpha to DNA. P41235. hit rate 0.3% among 360,000. HNF4a-FITC DNA binding, fluorescence polarization, 1 h. activity change, % at 10 µM; in the data active = activity change above about 30%, passing the limit was not always enough;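 also: controls were the assay level and a saturating level of protein; the project sought stronger binding though the title names inhibitors; some compounds called inactive have numbers as strong as hits; positive values seem to mean higher polarization but the record does not say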
rRNA inh HTS: inhibitors of bacterial rRNA selective over humanized ribosomes; E. coli WT GFP vs humanized-ribosome RFP mutants, fluorescence, 24 h; active compounds read low; DMSO median 0, no signal -100; GFP signal change (wild-type ribosome), % (no concentration beside the values); hit rate 1.6% among 350,000; AID 720706;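 active = significant combined selectivity score with lowered wild-type GFP, culture density cut under 30%, mutant RFP and density less affected; inactive = any of these conditions unmet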; also: one replicate is shown; some compounds called inactive have numbers as strong as hits
Vif TR-FRET: inhibitors of Vif binding to APOBEC3G peptide, primary screen, biochemical, TR-FRET, GST-Vif 1-94, biotin-A3G peptide, dose response retest (AID 1117319); inhibition, %; hits with a dose series show IC50 in µM; hit rate 0.57% among 260,000; TR-FRET GST-Vif / biotin-A3G peptide binding; higher % means a stronger effect; test concentration not given here; strong numbers were not always called active;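 active = above the screen mean plus three standard deviations and confirmed in dose response; inconclusive = results disagree or hit not tested in dose response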;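 also: Vif residues 1-94 fused to GST binding biotinylated APOBEC3G peptide 110-148; 0% = full assay without inhibitor and 100% = GST in place of GST-Vif; retest series ran down from 100 µM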
rRNA inh HTS OD600: second read-out of rRNA inh HTS, no call of its own (marks repeat the call); OD600 change, %; measured here: OD600 growth;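 optical density of the mix in the first replicate; 0 = DMSO median and -100 = no signal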
rRNA inh HTS RFP: recorded beside rRNA inh HTS, whose call it bears; RFP signal change, %; measured here: RFP humanized mutant strains;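 first replicate; 0 = DMSO median and -100 = no signal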
* marks the source's active call; other numbers are inactive results; i = inactive; u = inconclusive; x = no result given; + = active, no number; & = joins results of further samples.

Order of values: E coli growth, FGF22 binding, ALR H2O2 inh, AF4-AF9 inh, HNF4A DNA FP, rRNA inh HTS, rRNA inh HTS OD600, rRNA inh HTS RFP, Vif TR-FRET
1: Cc1nc(Nc2ccc(Cl)c(Cl)c2)sc1C(/C=C/c1ccc2c(c1)OCO2)=NNc1ccc([N+](=O)[O-])cc1[N+](=O)[O-]
→ x, i, x, -4.5, 0.0, 9, 12, 0.4, 0%
2: Cc1ccc(-n2nc3c(c2NC(=O)c2ccc(OC(C)C)cc2)CS(=O)C3)cc1 (centres undefined)
→ 0.72, x, -6, x, 0.5, x, x, x, 16%
3: Cc1cc(C)n2c(SC(C)C(=O)NC3(C#N)CCCCC3)nnc2n1 (centres undefined)
→ 0.7, i, x, 0.5, -4.7, 11, 9, 1.1, x
4: O=C(COc1ccccc1)Nc1cccc(-c2cn3cccnc3n2)c1
→ 0.63, i, 0, -0.6, -2.8, -20, -20, 5.8, x
5: Cc1ccccc1COC[C@H](CC(C)C)N1CCN(C(=O)c2cccc(C(F)(F)F)c2)CCC1=O
→ x, i, x, 0.6, 1.0, 6, 1, 17, 0%
6: COC(=O)c1cc(OC)c(OC)cc1NC(=S)Nc1cc(Cl)ccc1OC
→ 0.67, i, 14, 1.7, 1.4, 3, 2, 0.8, x
7: Cc1cc(C)cc(C(=O)NCC(=O)OCC(=O)c2cc(C)n(CC(F)(F)F)c2C)c1
→ 0.7, x, -6, -1.1, 1.0, 11, 11, -0.2, 17%
8: COc1cc(OC)c(/C=N/NC(=O)c2ccc([N+](=O)[O-])cc2)cc1Br
→ x, x, -8, x, 1.0, x, x, x, 12%
9: COC(=O)[C@]12C[C@H](CC(=O)N3CCSCC3)C(=O)N(Cc3ccccc3)C1=C[C@H](C(C)(C)C)O[C@@H]2C
→ x, i, x, -0.4, x, 2, -6, 0.3, x
10: Fc1ccccc1CNC(=S)Nc1ccc(Cl)cc1
→ 0.56, x, 1, x, 1.3, x, x, x, x
11: COc1cccc(C(CC(=O)NCC2CCCO2)NS(=O)(=O)c2ccc(C)cc2)c1OC (centres undefined)
→ 0.68, x, x, x, 0.0, x, x, x, 16%
12: Cc1cc(NC(=O)CCN2C(=O)c3ccccc3C2=O)no1
→ 0.7, x, -3, x, 1.5, 1, -1, -2.9, 22%
13: O=C(C[C@H]1CC[C@@H](NS(=O)(=O)c2ccccc2)[C@H](CO)O1)NCCN1CCCCC1
→ x, i, x, 0.2, x, 0, -4, -1.1, x
14: COc1ccc(CN2CCNC(=O)C2CC(=O)N(C)CC2CCOCC2)cc1C (centres undefined)
→ 0.69, i, x, -1.3, 0.5, -1, -4, -1.0, x
15: Cc1cc(S(=O)(=O)NCc2ccc3c(c2)OCO3)ccc1F
→ 0.68, i, 26, -6.5, 4.7, -3, -6, -0.2, -9%
16: COc1ccc(S(=O)(=O)N2CCC(C(=O)N[C@H](C(=O)N3CCCCCC3)C(C)C)CC2)cc1
→ 0.7, i, -1, -1.5, 4.4, -6, 1, -0.4, x
17: O=C(N/N=C/C=C\c1ccco1)c1cccnc1
→ x, x, -5, x, 1.1, x, x, x, 4.1µM*
18: CCOc1ccc(-c2nc(S(=O)(=O)c3ccccc3)c(NCc3cccnc3)o2)cc1
→ 0.72, x, 15, x, 2.9, x, x, x, -2%&3%
19: CCOc1cccc(OCCOc2ccc(C(=O)c3ccccc3)cc2)c1
→ 0.69, i, x, 1.4, 1.3, 8, 4, -9.5, -10%
20: C/C(=N\NC(=O)c1ccn(C)n1)c1cccc(NC(=O)c2ccc(C)s2)c1
→ x, i, -4, 2.8, 5.8, -18, -3, -13, 1%

Continued:
Order of values: E coli growth, FGF22 binding, ALR H2O2 inh, AF4-AF9 inh, HNF4A DNA FP, rRNA inh HTS, rRNA inh HTS OD600, rRNA inh HTS RFP, Vif TR-FRET
21: C=CCOc1ccc(C2/C(=C(\O)c3ccc4c(c3)CC(C)O4)C(=O)C(=O)N2CCN2CCOCC2)cc1OCC (centres undefined)
→ 0.69, i, 5, 0.3, -1.3, 0, 10, 2.8, x
22: CCc1nnc(NS(=O)(=O)c2ccc(Nc3ccc([N+](=O)[O-])c4nonc34)cc2)s1
→ 0.69, +, -34, u, 38*, 33, 0, -1.0, 6%
23: CCCNC(=O)c1cc(C2CCCCN2C(=O)CCCc2ccccc2)on1 (centres undefined)
→ x, i, x, 7.1, 0.7, 8, 6, 5.3, x
24: NS(=O)(=O)c1ccc(N=Nc2c[nH]c(=O)c(O)c2)cc1
→ 0.66, i, 90*, 7.3, -62, -6, -10, 6.3, 4.1µM*
25: Cc1nnc(NC(=O)C2CCN(c3cnccn3)CC2)s1
→ 0.69, x, -1, x, -4.0, x, x, x, 2%
26: O=P(OC1CCCCC1)(OC1CCCCC1)C(O)c1c(Cl)cccc1Cl (centres undefined)
→ 0.66, x, -6, x, 4.3, x, x, x, -5%
27: CC(NC(=O)c1cc(COc2ccc(-n3cncn3)cc2)on1)c1ccc(F)cc1 (centres undefined)
→ x, i, x, -0.3, -2.6, -5, -6, -0.9, 3%
28: CC(=O)NC(c1cccc([N+](=O)[O-])c1)c1ccc2cccnc2c1O (centres undefined)
→ x, i, 0, 1.3, 0.1, 8, 5, -3.2, x
29: COc1cccc(NC(=O)C(NC2CCCC2)c2ccccc2)c1 (centres undefined)
→ 0.69, x, 25, x, -1.9, x, x, x, -5%
30: COC(=O)[C@@H](Cc1c[nH]c2ccccc12)NC(=O)CNC(=O)c1ccccc1OC
→ 0.67, x, 2, 2.1, -1.4, 2, 0, 2.7, x
31: O=C(O)Cc1coc(-c2ccc(F)cc2)n1
→ 0.67, x, 6, x, -3.2, x, x, x, 8%
32: C/C(=N/NC(=O)c1ccc(C)s1)c1ccncc1
→ x, i, 13, -0.7, -0.6, 5, 4, -1.0, x
33: CCN1CCN(C(=O)Nc2ccc(OC)cc2OC)CC1
→ 0.68, i, -7, -0.1, 1.2, 16, 10, 2.5, x
34: CSc1ccccc1NC(=O)N1CCCC(C(=O)c2ccc3c(c2)OCO3)C1 (centres undefined)
→ 0.69, x, -10, -0.4, -0.7, -8, -18, -5.3, 0%
35: NC(=S)NN=C1c2ccccc2-c2c(F)c(F)c(F)c(F)c21
→ x, i, x, -2.8, 0.1, -12, -44, -5.4, x
36: O=C(N/N=C(\c1ccccc1)c1cccnc1)c1cc(O)ccc1O
→ x, i, 60, -1.3, x, 4, 2, -2.5, x
37: Cc1ccc(C)c(OCc2nnc(SCC(=O)NCc3ccc4c(c3)OCO4)o2)c1
→ 0.7, i, x, 3.6, -2.0, 4, 0, 3.1, 24%
38: Cc1ccc(NC(=S)N2CCC(O)CC2)c(C)c1
→ 0.69, i, -2, -1.0, -6.1, 3, 1, -2.0, x
39: CO[C@H]1CN(C)C(=O)c2ccc(NC(C)=O)cc2OC[C@@H](C)N(CC2CC2)C[C@H]1C
→ x, i, x, -1.2, x, 2, 1, -0.4, x
40: CC(C)(C)c1ccc(/C=C/C(=O)NC2=NCCS2)cc1
→ 0.77, x, x, x, 1.0, x, x, x, 2%

Single records, from the list above. Screens in order: E coli growth | FGF22 binding | ALR H2O2 inh | AF4-AF9 inh | HNF4A DNA FP | rRNA inh HTS | rRNA inh HTS OD600 | rRNA inh HTS RFP | Vif TR-FRET
CC(=O)NC(c1cccc([N+](=O)[O-])c1)c1ccc2cccnc2c1O (centres undefined) reads x | i | 0 | 1.3 | 0.1 | 8 | 5 | -3.2 | x
C/C(=N/NC(=O)c1ccc(C)s1)c1ccncc1 reads x | i | 13 | -0.7 | -0.6 | 5 | 4 | -1.0 | x

Additional entries:
Order of values: E coli growth, FGF22 binding, ALR H2O2 inh, AF4-AF9 inh, HNF4A DNA FP, rRNA inh HTS, rRNA inh HTS OD600, rRNA inh HTS RFP, Vif TR-FRET
41: O=C(CSc1cccc[n+]1[O-])NCCCc1ccccc1
→ 0.69, i, 2, -4.4, 0.9, -3, -2, -0.3, -4%
42: COc1ccc(-n2c(=O)[nH]cc(C(=O)Nc3ccc4c(c3)OCCO4)c2=O)cc1
→ 0.67, x, 6, x, -2.0, x, x, x, 20%
43: C[C@H]1CN([C@@H](C)CO)C(=O)Cc2cc(NS(=O)(=O)c3ccc(F)cc3)ccc2O[C@H]1CN(C)S(=O)(=O)c1ccc(F)cc1
→ x, i, x, -11, x, 1, 2, 1.0, x
44: CC(C)NC(NC(=O)Cc1ccccc1)C(Cl)(Cl)Cl (centres undefined)
→ 0.66, x, -1, x, -0.9, x, x, x, -1%
45: CO[C@@H]1CC[C@H]2CCOc3ccc(C#N)cc3C(=O)N(C)C[C@@H](OC)[C@@H](C)C(=O)N(C)C[C@H]1O2
→ x, i, x, 1.0, x, 4, 9, -4.4, x
46: O=C1C(=NO)CCCc2ccccc21
→ x, i, x, 0.0, -0.1, 7, 6, 2.1, -7%
47: COc1ccc(-c2cc(C(F)(F)F)nc(SCc3cccc(C(=O)O)c3)n2)cc1
→ 0.68, i, 5, 9.6, 2.8, -43*, -21*, -12*, -5%
48: CC[N+](CC)=N/N=C1\C=CC[N+]([O-])=C1
→ x, i, x, -5.5, 1.8, x, x, x, x
49: O=C(Nc1ccccc1Cl)C1CCCN(S(=O)(=O)c2ccc(F)cc2)C1 (centres undefined)
→ 0.72, x, -2, x, -0.9, x, x, x, -1%
50: COc1ccc(NC(=O)N(C)C[C@@H]2OCCCC[C@H](C)Oc3ccc(NC(=O)C4CCCCC4)cc3C(=O)N([C@H](C)CO)C[C@H]2C)cc1
→ x, i, x, -0.6, x, -4, -11, -2.4, x
51: CCCNC(=O)CN1CCC(c2nc3ccccc3[nH]2)CC1
→ 0.7, i, -2, -5.3, -2.3, 15, 5, 1.5, -4%
52: O=C(NNC(=O)C1CC1)c1ccc(-c2ccccc2)cc1
→ 0.67, i, 0, 2.5, 2.4, 8, 4, -2.9, -2%
53: C[C@@H]1CN([C@H](C)CO)C(=O)c2cc(NC(=O)Nc3ccc(C(F)(F)F)cc3)ccc2O[C@@H](C)CCCCO[C@H]1CN(C)C(=O)Nc1ccc(F)cc1
→ x, +, x, -10, x, -5, 0, -4.9, x
54: COCC#Cc1cnc2c(c1)C(=O)N([C@H](C)CO)C[C@H](C)[C@H](CN(C)C(=O)Cc1ccncc1)O2
→ x, i, x, -2.5, x, 5, 16, -1.8, x
55: COc1ccc(Br)cc1C(=O)N/N=C/c1cccnc1
→ x, i, -9, -9.3, 1.8, 13, 16, -0.8, -7%
56: CO[C@@H]1CC[C@H]2CCN(C)C(=O)C[C@@H](c3ccccc3)CN(C)C(=O)c3cccc(C#N)c3OC[C@@H]1O2
→ x, i, x, 3.6, x, 1, -2, -1.9, x
57: C[C@H](CO)N1C[C@H](C)[C@@H](CN(C)C(=O)CN2CCOCC2)Oc2ncc(-c3ccncc3)cc2C1=O
→ x, i, x, -1.3, x, 3, 13, -2.4, x
58: Cc1noc(C)c1NC(=O)Nc1cccc2c1O[C@@H](CN(C)C(=O)Nc1ccc(C(F)(F)F)cc1)[C@@H](C)CN([C@H](C)CO)C2=O
→ x, i, x, 1.3, x, -4, -4, 2.3, x
59: CCCCONc1ncnc2nonc12
→ 0.64, x, 2, x, -3.8, x, x, x, -2%
60: CCN1CCCC1CNC(=O)Cn1cccc1C(=O)c1ccccc1 (centres undefined)
→ 0.75, x, -21, x, 0.9, x, x, x, 3%
61: Nc1nc(NCCCN2CCOCC2)nc(Nc2ccccc2F)c1[N+](=O)[O-]
→ 0.62, i, -1, 4.0, 4.2, -9, -24, 2.2, -6%

Some of the compounds tested; the hit share may differ from the screen's.
